Source: PubChem
H5N1 CPE: antiviral screen in MDCK cells, H5N1 avian flu; cytopathic effect, luminescence, 72 h; hits give high values; no value below 0 was filed and about half of the inactive calls have no number; reference of the scale not given here; inhibition, % at 50 µM; 0.07% of 96,000 active; AID 740; in the data active means inhibition above about 25%
Active calls of the source: *; i = inactive.

SMILES	H5N1 CPE
Cc1onc(-c2ccccc2Cl)c1C(=O)Oc1cc(N)n(S(=O)(=O)c2ccc(F)cc2)n1	i
Cc1ccc(-c2ccc(=O)n(CC(=O)NCCN3CCCCC3C)n2)cc1 (configuration not stated)	1.1
COc1ccc(N(C(=O)c2cccc(OC)c2OC)C2C=CS(=O)(=O)C2)cc1 (configuration not stated)	i
COc1ccc(C2SCC(C(=O)O)N2C(C)=O)cc1 (configuration not stated)	i
CSc1cc(-c2ccccc2)n(Cc2c(Cl)cccc2Cl)c(=O)c1C#N	i
Cc1ccc(-c2cc(C(F)F)nc(N3CCC(C)CC3)n2)cc1	3.3
C=C(C)CSc1nc2nc(C)c(Br)cc2[nH]1	0.7
O=C(CSc1nnc(COc2ccc3c(c2)CCCC3)o1)Nc1ccc(F)cc1	i
COc1ccc(-c2nc(Cn3c(SCc4ccccc4F)nc4ccncc43)c(C)o2)cc1	i
Nc1c(C(=O)NCc2ccco2)c2nc3ccccc3nc2n1Cc1ccc(F)cc1	i
S=C1NCCOCCOCCOCCN1	i
CC(=O)N1CCc2c(sc(NC(=O)CN3C(=O)CCC3=O)c2C(N)=O)C1	i
Cc1ccccc1NC(=O)/C(=C/c1ccccc1)c1ccccc1	0.5
Cc1cc(C)n(CC2CC(=O)N(c3ccc(Cl)c(Cl)c3)C2=O)n1 (configuration not stated)	0.4
COC(=O)Nc1ccc(S(=O)(=O)NCCO)cc1	i
Cc1ccc(N2CC(C(=O)Nc3nccs3)CC2=O)cc1 (configuration not stated)	0.1
Cc1cc(C)nc(-n2nc(C)cc2NC(=O)CN2CCc3ccccc3C2)n1	i
CCOC(=O)c1ccc2c(c1)nc(SC/C(O)=C(\C#N)c1nc3ccccc3[nH]1)n2CC	i
Cc1onc(-c2ccccc2)c1C(=O)Nc1cccnc1	i
Cc1cc2nc(-c3ccc(SCC(=O)Nc4ccc5c(c4)OCCO5)nc3)[nH]c2cc1C	i
Cc1cnc(C(=O)OCC(=O)Nc2ccc(Cl)cc2Cl)cn1	i
COc1ccc(NC(=O)C2OCCc3ccccc32)c(OC)c1 (configuration not stated)	1.3
COc1ccc(OCC(=O)NNC(=O)c2ccc(-c3ccccc3)cc2)cc1	i
Cc1nc([N+](=O)[O-])c(Br)n1CC(=O)c1ccc(Br)cc1	9.0
COc1ccc(C(=O)N(CN2CCCC2=O)c2cc(C)on2)cc1OC	0.2

For convenience, some entries already given:
SMILES	H5N1 CPE
Cc1onc(-c2ccccc2Cl)c1C(=O)Oc1cc(N)n(S(=O)(=O)c2ccc(F)cc2)n1	i
Cc1ccc(-c2ccc(=O)n(CC(=O)NCCN3CCCCC3C)n2)cc1 (configuration not stated)	1.1
COc1ccc(N(C(=O)c2cccc(OC)c2OC)C2C=CS(=O)(=O)C2)cc1 (configuration not stated)	i
COc1ccc(C2SCC(C(=O)O)N2C(C)=O)cc1 (configuration not stated)	i

(list continues)
SMILES	H5N1 CPE
O=C(NC1CCCCC1)C(c1ccncc1)N(C(=O)Cn1nnc(-c2cccs2)n1)C1CCCC1 (configuration not stated)	0.0
C=C(C)c1cccc(C(C)(C)NC(=O)N(Cc2ccccc2)Cc2ccco2)c1	i
O=C(CN1CCOCC1)Nc1ccccc1-c1ccccc1	i
C=CCc1cccc2cc(C(=O)OCC(=O)c3ccccc3)c(=O)oc12	0.7
CC(C)CNc1nnnc2c1sc1nc(N3CCOCC3)c3c(c12)CC(C)(C)SC3	1.7
CCOC(=O)c1c(NC(C)=O)sc2c(OC(C)=O)cccc12	1.5
Cc1ccc(NC(=O)CSc2nnc(-c3cnccn3)n2Cc2ccco2)cc1	i
Cc1ccc(C)c2[nH]c(=O)c(CN(Cc3ccco3)S(=O)(=O)c3ccc4c(c3)OCCO4)cc12	i
CCOC(=O)C1CCCCN1Cc1cccc(F)c1 (configuration not stated)	i
Cn1c(=O)[nH]c(=O)c2c1nc(Sc1ncccn1)n2CCCc1ccccc1	0.8
N#Cc1cnn(-c2nc3sc4c(c3c(=O)[nH]2)CCCC4)c1N	4.6
CC1=CCC2C(=O)N(c3ccc4ccccc4n3)C(=O)C2C1 (configuration not stated)	0.1
Cc1cc(C)c(N2CCN(S(=O)(=O)N3CCCCCC3)CC2)c(C)c1	4.3
O=C(Cc1cccs1)NCC1CCCO1 (configuration not stated)	i
CCCCCn1c(CNC(C)=O)nc2ccccc21	i
CCN(CCCn1c(SCC#N)nc2ccccc2c1=O)c1ccccc1	1.2
Cc1nc(C)c(-c2ccccc2)c(=O)[nH]1	i
CC1CCCC(C)N1C(=O)c1cc(-c2cccs2)on1 (configuration not stated)	0.3
Cc1ccc(NC2=NC3(CCCCC3)N=C(N)N2)c(C)c1	0.4
O=C(C1CCC1)N1CCc2cc(S(=O)(=O)NC3CCCC3)ccc21	0.2
Cc1cccc(NC(=O)CSc2ncnc3c2oc2ccccc23)c1	1.1
O=C(CN(c1ccc(Cl)cc1)S(=O)(=O)c1ccccc1)N1CCN(c2ccccc2)CC1	0.3
CCOc1cc(CNc2ccc3c(c2)OCCO3)cc(Br)c1OCC	i
COc1ccc(C)cc1N(C)C(=O)c1coc(=O)c2ccccc12	0.9
CC(C)C[C@@H]1NC(=O)N(CCN2CCOCC2)C1=O	i
(list continues)
SMILES	H5N1 CPE
O=C(Cc1ccc(S(=O)(=O)N2CCOCC2)s1)NCC1CCCCC1	0.8
CCOc1ccccc1N1CCN(C(=O)C(F)(F)F)CC1	i
CC1CCC(N2CC(=O)N(Cc3ccc4c(c3)OCO4)C(c3ccc(F)cc3)C2=O)CC1 (configuration not stated)	0.1
COc1ccc(/C=C/C(=O)c2ccc(NC(=O)c3cccs3)cc2)cc1OC	i
O=[N+]([O-])c1cc(C(F)(F)F)ccc1NCCCCNS(=O)(=O)c1ccc2ccccc2c1	i
Cc1cc(C)cc(OCC(=O)Nc2ccccc2N2CCCCC2)c1	i
CC(C)CC(=O)N1CCC(O)(CS(=O)(=O)Cc2ccccc2)CC1	1.0
Cc1ccc(S(=O)(=O)Nc2nc(C)c(NC(=O)OCCCl)s2)cc1	0.1
Oc1ccc(-c2csc(Nc3cccnc3)n2)cc1	1.2
CCCCS(=O)(=O)CC(COc1ccccc1)OC(=O)c1ccccc1 (configuration not stated)	1.1
CCC1CCCCN1CCNC(=O)c1[nH]c(C)c(C(C)=O)c1C (configuration not stated)	0.5
O=C(O)Cn1c(O)c(C=Nc2ccccc2)sc1=S	i
Cc1ccc2c(c1C)NC(C(=O)O)C1CC=CC21 (configuration not stated)	0.5
Cc1c(Cl)cccc1NC(=O)CCC(=O)NNC(=O)c1ccco1	i
O=C(CN1C(=O)C2C3C=CC(C3)C2C1=O)N1CCc2ccccc2C1 (configuration not stated)	i
O=C(COc1ccc(Cl)cc1Cl)OCn1nnc2ccccc2c1=O	i
CCN1CCC(=NNC(=O)c2ccc(C)c([N+](=O)[O-])c2)CC1	i
O=C(NC1CCCCC1)C(c1ccc2ncccc2c1)N(Cc1ccco1)C(=O)c1ccc2c(c1)OCCO2 (configuration not stated)	i
COc1ccc(CNC(=O)/C=C/c2ccc(OCCCF)cc2)cc1	2.0
COc1ccc(-c2c(C)n([O-])c3c([n+]2=O)CCCC3)cc1	i
O=C(CCC(=O)Nc1ccc(Oc2ccccc2)cc1)NCCO	i
COc1cc(C(=O)NCCC(C)C)c([N+](=O)[O-])cc1OC	i
Cc1ccc(S(=O)(=O)Cc2ccc(C(=O)N3CCN(c4cc(C)ccc4C)CC3)o2)cc1	0.8
COc1ccc(C(C[N+](=O)[O-])c2c(-c3ccccc3)cc3ccccn23)cc1OC (configuration not stated)	i
CCOC(=O)C1CCN(c2cc(C)nc3cc(-c4cccc(F)c4)nn23)CC1	2.3

Some values from the list:
`C=C(C)CSc1nc2nc(C)c(Br)cc2[nH]1` in H5N1 CPE = 0.7
`Cc1cc(C)n(CC2CC(=O)N(c3ccc(Cl)c(Cl)c3)C2=O)n1` (configuration not stated) in H5N1 CPE = 0.4
`CCN(CCCn1c(SCC#N)nc2ccccc2c1=O)c1ccccc1` in H5N1 CPE = 1.2
`CCOC(=O)c1c(NC(C)=O)sc2c(OC(C)=O)cccc12` in H5N1 CPE = 1.5

Back to the main list with the four entries that preceded the break.
SMILES	H5N1 CPE
COc1cc(C(=O)NCCC(C)C)c([N+](=O)[O-])cc1OC	i
Cc1ccc(S(=O)(=O)Cc2ccc(C(=O)N3CCN(c4cc(C)ccc4C)CC3)o2)cc1	0.8
COc1ccc(C(C[N+](=O)[O-])c2c(-c3ccccc3)cc3ccccn23)cc1OC (configuration not stated)	i
CCOC(=O)C1CCN(c2cc(C)nc3cc(-c4cccc(F)c4)nn23)CC1	2.3
CNC(=O)NC(=S)NC(=O)c1ccc(OC)cc1	i
Cc1cc(-c2ccccc2)nc2cc(C(=O)NCCCn3ccnc3)nn12	i
COc1ccc(CN(C)C(=O)COC(=O)c2ccc3c(c2)OCO3)cc1OC	i
COc1cc(/C=N\Nc2nc3ccccc3[nH]2)cc(OC)c1OC	i
N#CCc1nc2c3c4c(sc3ncn2n1)CCCC4	1.0
COc1cc(C2C3=C(CC(c4ccco4)CC3=O)Nc3ccccc3N2C(C)=O)cc(OC)c1OC (configuration not stated)	0.1
CN1C(=O)C2(c3ccccc31)N(C)CC(c1ccccc1)C21SC(=S)N(Cc2ccco2)C1=O (configuration not stated)	1.5
COc1cc2nc(NC(=O)c3ccccc3)[nH]c(=O)c2cc1OC	i
Cc1cccc(C(=O)NN(C)c2nc(-c3ccccc3)nnc2C(F)(F)F)c1	0.9
Cc1cc(C)c2c(-n3cccc3)c(C(=O)NNS(=O)(=O)c3ccc(Cl)cc3)sc2n1	2.3
Cc1cc(C)n(-c2nc3ccccc3c(=O)n2OCc2ccc(Cl)cc2)n1	1.3
c1ccc(CCCc2nc(-c3ccccn3)no2)cc1	i
Cc1nn(Cc2ccc(Cl)c(Cl)c2)c(C)c1NC(=O)c1noc2c1CCCCC2	i
O=C(Cn1cnc([N+](=O)[O-])c1)NCc1ccc(F)cc1	i
O=c1cc(O)nc(SCc2ccccc2)n1-c1ccccc1	i
CC(C)N(CCNS(=O)(=O)c1ccc(Cl)cc1)C(C)C	1.3
Cc1cccc(Nc2nc(N)nc(CN3CCN(c4ccc(F)cc4)CC3)n2)c1	i
Cc1ccc(-c2cc(C(=O)Nc3cnn(C45CC6CC(CC(C6)C4)C5)c3)no2)cc1	0.5
Cc1cc(C)cc(N2C(=O)CSC2c2cccs2)c1 (configuration not stated)	1.1
O=C(O)CCCNS(=O)(=O)c1ccc2ccccc2c1	i
Cc1occc1C(=O)Nc1nnc(-c2ccncc2)s1	2.6
N#CC1=C(N)Oc2n[nH]c(-c3ccccc3)c2C12C(=O)Nc1ccccc12 (configuration not stated)	1.5
Cc1n[nH]c(C)c1Sc1ccccc1N=Cc1cc([N+](=O)[O-])ccc1O	i
CC(=O)Nc1ccc(S(=O)(=O)NCCc2ccc(S(N)(=O)=O)cc2)cc1	0.0
CC(C)(C)c1cnnn1-c1ccc(C(=O)CCl)cc1	1.7
The results go on.
SMILES	H5N1 CPE
CCc1nn(CC(=O)NCCCN2CCc3ccccc3C2)c(=O)c2cc3sccc3n12	4.4
O=C(NCCc1ccccc1)c1ccncc1	0.5
O=C(CC(c1ccccc1)c1ccccc1)OCn1nnc2ccccc2c1=O	i
COCC(=O)Oc1c(S(=O)(=O)c2ccc(C)cc2)c(C)nn1-c1ccccc1	i
COC(=O)CNC(=O)c1cccc(F)c1	i
CC1Cc2nc(SCC(=O)Nc3ccccc3F)n(C)c(=O)c2S1 (configuration not stated)	1.4
COc1ccc(Cl)cc1NC(=S)N1CCN(c2ccccn2)CC1	i
O=C(NCC1CCCO1)C1CC(c2ccc(Cl)c(Cl)c2)=NO1 (configuration not stated)	i
CC12CN3CC(C)(CN(C1)C3c1ccc(Br)cc1)C2=O (configuration not stated)	i
COc1cc(/C=N/NC(=O)c2cccnc2)ccc1OS(=O)(=O)c1ccc(F)cc1	0.8
Cc1cc(C)nc(-n2nc(C)cc2NC(=O)c2cccc(S(=O)(=O)N3CCCCC3)c2)n1	i
CC1CCN(Cc2ccc(NC(=O)C3CCN(c4nnc(-n5cccc5)s4)CC3)cc2)CC1	i
CCOC(=O)c1[nH]c2ccccc2c1NC(=O)NC1CCCCC1	0.5
O=C(CCSc1ccc(Cl)cc1)NC12CC3CC(CC(C3)C1)C2	3.3
O=C(NC1CCCCC1)C1CCCN(S(=O)(=O)c2cnc[nH]2)C1 (configuration not stated)	0.4
Cc1cccc(NC(=O)CN2C(=O)N/C(=C/c3cc(C)n(C(C)C)c3C)C2=O)c1	i
CC(C)CCN1CC(C(=O)NCc2ccccc2)CC1=O (configuration not stated)	i
CC12CCC(=O)C=C1CCC1C2CCC2(C)C(O)CCC12 (configuration not stated)	1.9
Cc1cc(C)c(C)c(OCC(=O)O/N=C(\N)c2ccccn2)c1	i
CCOC(=O)c1c[nH]c2c(C)cc(C)cc2c1=O	i
CC(=O)Oc1c(S(=O)(=O)c2ccc(C)cc2)c(C)nn1-c1ccccc1	i
O=C(CCCN1C(=O)CCC1=O)Nc1ccc2c(c1)OCCO2	0.1
O=C(c1cnc2sccn2c1=O)N(Cc1ccccc1)c1ccccn1	i
Cc1cccc(OCCCn2c(=O)sc3ccccc32)c1	0.3
Cc1ccc(C2=N/C(=C/N3CCOCC3)C(=O)O2)cc1	0.7

An excerpt of these results, in markdown:
| mol | H5N1 CPE |
| --- | --- |
| CC(C)CCN1CC(C(=O)NCc2ccccc2)CC1=O (configuration not stated) | i |
| CC12CCC(=O)C=C1CCC1C2CCC2(C)C(O)CCC12 (configuration not stated) | 1.9 |
| Cc1cc(C)c(C)c(OCC(=O)O/N=C(\N)c2ccccn2)c1 | i |

Next part
SMILES	H5N1 CPE
COc1cc(C(=O)OCC(=O)c2cc(C)n(C)c2C)cc(NC(=O)c2ccco2)c1OC	i
CNc1cc(CS(=O)c2ccccc2)nc(-c2ccccc2)n1 (configuration not stated)	1.0
CCOc1ccc(-c2nc(C#N)c(N3CCN(Cc4ccccc4)CC3)o2)cc1	1.4
O=C(Nc1ccc2c(c1)OCCO2)C1CCN(C(=O)c2ccc(Br)cc2)CC1	i
CS(=O)(=O)N(CC(=O)NCc1ccc2c(c1)OCO2)Cc1ccc(Cl)cc1	0.6
CCSc1nnc(C)n1-c1ccc(C(=O)O)cc1	0.1
COc1ccc2sc(NC(=O)CC(C)C)nc2c1	i
COC(=O)CCN(c1ccccc1)S(=O)(=O)c1ccc(OC)cc1	i
O=C(CCC1CCCCC1=O)c1ccccc1 (configuration not stated)	i
COc1ccccc1NC(=O)CN1CCN(S(=O)(=O)c2ccc(Br)cc2)CC1	0.2

These rows are one share of the data; count on the stated rates, not on these rows.
